Mtb H37Rv = Mycobacterium tuberculosis H37Rv growth inhibition, cell based, confirmatory dose response (AID 1949); most inactive calls were filed without a number and no value below 0 was filed; one-dose inhibition, % at 10 µg/mL; IC50 in µg/mL for titrated hits; 1.6% of 100,000 active;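 active means confirmed in a dose series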;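 further: bacteria grown 7 days with compound before Alamar blue readout; 0% = untreated bacteria and 100% = reference antibiotic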
The depositor's hits bear a star; i = inactive. These rows are one share of the data (hit frequency here may not be typical).

SMILES	Mtb H37Rv
Cc1ccc(SCC(=O)Nc2ccc(Cl)cc2C)cc1	i
CC(C)(C)Cc1nnc(NC(=O)c2cccc(F)c2)s1	i
C=CCN(C(=O)CSc1nnc(-c2ccc(C)cc2)o1)c1nnc(-c2ccccc2)s1	i
COc1ccc(N(CC(=O)NC2CCCC2)S(=O)(=O)c2ccccc2)cc1	6.0%
CCc1ccc(NC(=O)CN(c2ccc(F)cc2)S(=O)(=O)c2ccccc2)cc1	i
COc1cccc(NC(=O)Cc2nnc(SCC(=O)Nc3cccc(F)c3)n2C)c1	i
COC(=O)c1ccc(C2c3c(oc4ccc(Cl)cc4c3=O)C(=O)N2Cc2ccccc2Cl)cc1 (stereo not drawn)	i
O=C(/C=C/Nc1ccc(F)cc1)c1ccc(Br)cc1	i
Cc1ccc(C(C)(C)C)c(OCCN2CCN(C)CC2)c1	i
O=C(CCc1ccccc1)NC(=S)Nc1ccc(S(=O)(=O)N2CCOCC2)cc1	i
CC(C)CC(=O)NC1CCCCCCC1	i
C1CCC(CN2CCNCC2)C1	2.6%
Cc1ccc(C(=O)Nc2ncnc3sc4c(c23)CCC4)cc1	48.6%
CCN(CC)C(=O)CSc1nc2c(c(C(F)(F)F)c1C#N)CCC2	i
CCCC(=O)Nc1ccccc1NC(=O)COc1ccc(CC)cc1Br	i
CC(=O)c1ccc(C(=O)Nc2ccc(N3CCOCC3)cc2)cc1	0.9%
O=C(c1cccc(Cl)c1)N1CCN(c2ccccn2)CC1	i
Cc1ccc2c(Cl)c(C(=O)Nc3ccc(F)cc3F)sc2c1	i
CN(Cc1ccccc1)C(=O)CN(Cc1ccc(F)cc1)S(=O)(=O)c1ccc(Cl)cc1	i
O=C(Nc1cccc([N+](=O)[O-])c1)c1ccc2snnc2c1	i
O=C(CSc1nnc(-c2ccncc2)o1)NC1CCCCC1	i
Cc1onc(-c2c(Cl)cccc2Cl)c1C(=O)Nc1nncs1	4.4%
CC(C)(C)c1cc(Cl)ccc1OCCOCCN1CCCCC1	i
Cc1ccc(S(=O)(=O)Nc2cccc(-c3cn4ccccc4n3)c2)c(C)c1	i
CN(C(=O)COc1ccc(F)cc1)C1(C)CCS(=O)(=O)C1 (stereo not drawn)	i
Cc1cc(C)c2c3c(c(=O)oc2c1)SC(C(F)(F)F)C3 (stereo not drawn)	11.6%
O=S(=O)(c1ccc2c(c1)OCCO2)N1CCN(c2cccc(Cl)c2)CC1	i
Cc1ccc(C(=O)Nc2ccccc2N2CCOCC2)cc1C	i
COc1ccc(N(C(=O)C(C)C)S(=O)(=O)c2cccs2)cc1	2.9%
O=C(CSCc1ccccc1Br)Nc1cccnc1	i
O=C(Nc1cccc([N+](=O)[O-])c1)c1c(F)cccc1Cl	i
CN(c1ccc(C(=O)NCC2CCCO2)cc1)S(=O)(=O)c1ccc(Cl)cc1 (stereo not drawn)	i
Cc1ccccc1C(=O)Nc1sc2c(c1C(=O)NCCO)CCC(C(C)(C)C)C2 (stereo not drawn)	i
COc1ccc(-n2c(Cc3ccccc3)nnc2SCc2ccc([N+](=O)[O-])cc2)cc1	i
O=S(=O)(Nc1cccc(Br)c1)c1cccc2nsnc12	1.3%
Cc1cccc(C(=O)NC(=S)Nc2cc(Cl)c(Cl)cc2Cl)c1	i
C#CCOc1c(Cl)cc(/C=C/[N+](=O)[O-])cc1OC	29.4µg/mL*
O=c1c2cc(Br)ccc2[nH]c(=S)n1Cc1ccccc1	i
O=C(O)Cc1ccc(NC(=O)CN2C(=O)c3ccccc3C2=O)cc1	i
O=C(NCCN1CCOCC1)C(=O)Nc1ccccc1Cl	i
CC(=O)NCCc1c[nH]c2ccc(OCc3ccccc3)cc12	6.9%
COc1ccc(S(=O)(=O)NC(C)c2ccccc2)c2ccccc12 (stereo not drawn)	i
O=C(NCc1cccnc1)c1ccc(COc2ccccc2Br)o1	1.1%
NC(=O)CSc1nnnn1CC(CC(=O)O)c1ccccc1 (stereo not drawn)	i
O=C(Nc1ccccc1C(=O)N1CCOCC1)Oc1ccccc1	i
CCCN1C(=O)/C(=C2\SC(=S)N(CCC(=O)O)C2=O)c2ccccc21	3.9%
COc1ccc(C(=O)Nc2sc(C)c(C)c2C(N)=O)cc1Br	i
C=C(Br)Cn1c(SCC)nc2ccccc21	i
Cc1cc(C)c2c(n1)OC(N1CCOCC1)(C(F)(F)F)CC2=O (stereo not drawn)	i
O=C(CCc1ccccc1)N1c2ccccc2Sc2ccccc21	11.0%
O=[N+]([O-])c1ccc(S(=O)(=O)NCCSc2ccccc2)cc1	i
Cc1cccc(C(=O)NC(=S)NCc2ccccc2)c1	i
Cc1ccc(NC(=O)CSc2n[nH]c(-c3ccccc3)n2)c(C)c1	3.8%
CCOC(=O)c1cc2n(n1)C(C(F)(F)F)CC(C)N2 (stereo not drawn)	i
COc1cc(C(=O)Nc2cc(Cl)c(O)c(Cl)c2)cc(OC)c1OC	i
COc1cc(CO)ccc1OCc1ccc([N+](=O)[O-])cc1	0.8%
O=S1(=O)CCC(NS(=O)(=O)c2ccc3ccccc3c2)C1 (stereo not drawn)	i
O=C(Oc1ccc(Cl)c2cccnc12)c1ccccc1Br	i
Cc1ccc(S(=O)(=O)NC(C)(C)CSc2nncn2N)cc1	i
Cc1ccc(C(=O)N2CCN(C(=O)c3ccco3)CC2)cc1C	i

Part of the list above, as comma-separated lines:
SMILES,Mtb H37Rv
COc1ccc(N(C(=O)C(C)C)S(=O)(=O)c2cccs2)cc1,2.9%
O=C(CSCc1ccccc1Br)Nc1cccnc1,i
O=C(Nc1cccc([N+](=O)[O-])c1)c1c(F)cccc1Cl,i
CN(c1ccc(C(=O)NCC2CCCO2)cc1)S(=O)(=O)c1ccc(Cl)cc1 (stereo not drawn),i
Cc1ccccc1C(=O)Nc1sc2c(c1C(=O)NCCO)CCC(C(C)(C)C)C2 (stereo not drawn),i
COc1ccc(-n2c(Cc3ccccc3)nnc2SCc2ccc([N+](=O)[O-])cc2)cc1,i
O=S(=O)(Nc1cccc(Br)c1)c1cccc2nsnc12,1.3%
Cc1cccc(C(=O)NC(=S)Nc2cc(Cl)c(Cl)cc2Cl)c1,i
C#CCOc1c(Cl)cc(/C=C/[N+](=O)[O-])cc1OC,29.4µg/mL*
O=c1c2cc(Br)ccc2[nH]c(=S)n1Cc1ccccc1,i
O=C(O)Cc1ccc(NC(=O)CN2C(=O)c3ccccc3C2=O)cc1,i
O=C(NCCN1CCOCC1)C(=O)Nc1ccccc1Cl,i
CC(=O)NCCc1c[nH]c2ccc(OCc3ccccc3)cc12,6.9%
COc1ccc(S(=O)(=O)NC(C)c2ccccc2)c2ccccc12 (stereo not drawn),i
O=C(NCc1cccnc1)c1ccc(COc2ccccc2Br)o1,1.1%
NC(=O)CSc1nnnn1CC(CC(=O)O)c1ccccc1 (stereo not drawn),i
O=C(Nc1ccccc1C(=O)N1CCOCC1)Oc1ccccc1,i
CCCN1C(=O)/C(=C2\SC(=S)N(CCC(=O)O)C2=O)c2ccccc21,3.9%
COc1ccc(C(=O)Nc2sc(C)c(C)c2C(N)=O)cc1Br,i
C=C(Br)Cn1c(SCC)nc2ccccc21,i
Cc1cc(C)c2c(n1)OC(N1CCOCC1)(C(F)(F)F)CC2=O (stereo not drawn),i
O=C(CCc1ccccc1)N1c2ccccc2Sc2ccccc21,11.0%
O=[N+]([O-])c1ccc(S(=O)(=O)NCCSc2ccccc2)cc1,i
Cc1cccc(C(=O)NC(=S)NCc2ccccc2)c1,i
Cc1ccc(NC(=O)CSc2n[nH]c(-c3ccccc3)n2)c(C)c1,3.8%
CCOC(=O)c1cc2n(n1)C(C(F)(F)F)CC(C)N2 (stereo not drawn),i
COc1cc(C(=O)Nc2cc(Cl)c(O)c(Cl)c2)cc(OC)c1OC,i
COc1cc(CO)ccc1OCc1ccc([N+](=O)[O-])cc1,0.8%
O=S1(=O)CCC(NS(=O)(=O)c2ccc3ccccc3c2)C1 (stereo not drawn),i

Other entries.
SMILES	Mtb H37Rv
CCn1c(SCC(=O)Nc2ccc(C(C)C)cc2)nnc1-c1cccc(C)c1	i
O=C(N1CCOCC1)N1c2ccccc2CC(N2CCOCC2)c2ccccc21 (stereo not drawn)	i
C=CCc1cccc(Cl)c1OCCON1C(=O)CCC1=O	0.1%
CCn1nnnc1NCc1ccc(N2CCCC2)cc1	i
COC(=O)Cn1cnc(=O)c(C#N)c1C	1.9%
CCCCc1ccc(NC(=O)CCN2C(=O)c3ccccc3C2=O)cc1	i
CCc1cccc(C)c1NC(=O)C(C)N(c1ccccc1)S(C)(=O)=O (stereo not drawn)	i
C=CCn1c(SCC(=O)Nc2ccc([N+](=O)[O-])cc2)nc2ccccc2c1=O	i
COc1cc(C(=O)Oc2ccccc2NC2=NS(=O)(=O)c3ccccc32)cc(OC)c1OC	i
Cc1nc2ccc(C(=O)N3CCC(C)CC3)cc2nc1C	i
COc1cccc(C(=O)Oc2cc3oc(=O)c4c(c3cc2Cl)CCC4)c1	i
Cc1ccc(CSc2nc3nc(C)cc(C)n3n2)cc1	i
CCOC(=O)C1=C(C)NC(=S)NC1c1ccc(I)cc1 (stereo not drawn)	i
COc1ccc(N2CCN(C(=O)c3cccc(Cn4cc(Cl)cn4)c3)CC2)cc1	i
CC(c1ccccc1)N1CCn2c(nc3cc(NS(C)(=O)=O)ccc32)C1 (stereo not drawn)	i
COC(=O)c1ccc(C(=O)OC)c(NC(=O)c2ccco2)c1	11.0%
CN(C)c1ccc(NC(=O)Nc2ccc(Cl)cc2Cl)cc1	25.8%
CCOC(=O)c1cnc2c(ccc3ccccc32)c1NCCO	i
CCOC(=O)C1CCN(C(=O)c2ccccc2N(C)S(=O)(=O)c2ccccc2)CC1	0.5%
CCC(Sc1nnnn1-c1ccccc1)C(=O)Nc1ccc(Br)cc1 (stereo not drawn)	i
Cc1cccc(NC(=O)Cn2nnc(-c3ccc4c(c3)OCO4)n2)c1C	3.6%
COc1ccc(NC(=S)Nc2cc(C)ccn2)c(OC)c1	i
CCC(C(=O)Nc1cc(OC)c(OC)cc1C(=O)OC)c1ccccc1 (stereo not drawn)	0.4%
CC(C)(C)CC(C)(C)NC(=S)Nc1ccc2nc(-c3ccccn3)c(-c3ccccn3)nc2c1	0.4%
Cc1sc(NC(=O)CSc2nnc(-c3ccc(Cl)cc3Cl)o2)nc1-c1ccccc1	5.3%
CN1CCN(C(=O)C(=O)Nc2cccc3ccccc23)CC1	0.0%
CC(=O)c1ccc(Nc2ncnc3ccccc23)cc1	5.5%
CCOc1ccc(C(C)NC(=O)C2CCC2)cc1 (stereo not drawn)	i

In another format: results already given
COc1cc(CO)ccc1OCc1ccc([N+](=O)[O-])cc1
  Mtb H37Rv: 0.8%

O=S1(=O)CCC(NS(=O)(=O)c2ccc3ccccc3c2)C1 (stereo not drawn)
  Mtb H37Rv: i

O=C(Oc1ccc(Cl)c2cccnc12)c1ccccc1Br
  Mtb H37Rv: i

Cc1ccc(S(=O)(=O)NC(C)(C)CSc2nncn2N)cc1
  Mtb H37Rv: i
